MT1-MMP reporter – MT1-MMP gene expression reporter suppression – cell-based, luciferase reporter, luminescence (AID 618); MT1-MMP promoter luciferase reporter cells, luminescence; calls from a first round at 10 µM; hits with a dose series show EC50 in µM; 0.62% of 87,000 active;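 active means over half of the reporter light lost at 10 µM or EC50 under 50 µM; inactive means the rest and hits that failed the dose series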;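 further: actives suppress MT1-MMP promoter-driven transcription so potencies describe inhibitors; HT1080 fibrosarcoma cells; overnight exposure; toxic or luciferase-blocking compounds were not removed from the actives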
Hsc70 ATP site – small molecules displacing fluorescent ligand from Hsc70 – biochemical, fluorescence polarization, primary screen (AID 568); Hsc70 fluorescence polarization, probe displacement; higher % means a stronger effect; strong numbers were not always called active; 83,000 tested, under 10 active; one-dose displacement, % at 20 µM; IC50 in µM for titrated hits;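 active means displacement above 50% without optical interference and an IC50 on retest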;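 further: ATPase domain with a fluorescein-tagged ATP probe; 0% = vehicle and 100% = excess ADP; read after one hour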
WNV NS2B-NS3 inh – inhibitors of West Nile virus NS2B-NS3 protease | P06935 | WNV NS2B-NS3 protease, fluorogenic substrate Ex360/Em465; active compounds read low | z-score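 (tested at a level between 10 and 100 µM)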 | 0.18% of 65,000 active;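 active means z-score at -3 or under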;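 further: score is relative to mean and spread of the compound wells of a plate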
Target sequence (P06935 1371-1501 limits assumed): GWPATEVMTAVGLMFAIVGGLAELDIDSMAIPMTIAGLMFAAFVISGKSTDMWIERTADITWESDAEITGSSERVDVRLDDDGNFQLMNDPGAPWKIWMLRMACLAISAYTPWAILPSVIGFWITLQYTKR
Target sequence (P06935 1502-1679 limits assumed): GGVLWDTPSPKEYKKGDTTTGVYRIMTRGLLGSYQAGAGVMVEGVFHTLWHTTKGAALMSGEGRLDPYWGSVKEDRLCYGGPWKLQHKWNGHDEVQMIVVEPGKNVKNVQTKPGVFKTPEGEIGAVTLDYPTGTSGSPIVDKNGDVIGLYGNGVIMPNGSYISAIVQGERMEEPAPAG
An asterisk follows results filed as active; i = inactive; nt = no result given; + = active, no number.

SMILES	MT1-MMP reporter	Hsc70 ATP site	WNV NS2B-NS3 inh
Nc1cc(C(=O)OCC(=O)NCC2CCCO2)ccc1Cl (stereo not given)	i	-5.8%	0.05
Cc1cccc(N(C)C(=O)COc2cc(=O)n(C)c3ccccc23)c1	i	2.0%	-0.31
CC(OC(=O)C(NC(=O)c1ccco1)C(C)C)C(=O)Nc1ncc(Cl)cc1Cl (stereo not given)	i	3.8%	0.83
CN(C)CCCOC(=O)c1ccc(Cl)cc1	i	-1.8%	-0.5
FC(F)(F)c1cnc(Oc2ccc(-c3nnco3)cc2)c(Cl)c1	i	5.7%	-0.75
CCCCn1nnnc1SCC(=O)Nc1ccc2c(c1)OCO2	i	2.9%	2
COc1cccc(OC)c1C(=O)Nc1ccccc1C(=O)N1CCOCC1	i	-4.4%	1.7
O=C(Cn1nnc(-c2ccccc2)n1)Nc1ccccc1N1CCOCC1	i	3.2%	0.28
CC(C)c1nc2ccccc2c2nnc(SCC(=O)NCc3ccco3)n12	i	2.9%	-0.94
O=C(Nc1cccc(C(=O)N2CCOCC2)c1)c1ccccc1	i	-3.0%	nt
Clc1ccc(Cn2ncc3c(N4CCCCC4)ncnc32)c(Cl)c1	i	-7.2%	-0.61
CCOc1ccc(-c2nnc3sc(COc4ccc(C)cc4)nn23)cc1	i	-5.3%	-0.28
Cc1nn(-c2ccccc2)c(C)c1P(=O)(c1ccccc1)N(C)C (stereo not given)	i	-2.3%	1.1
Cc1ncc(CC(=O)n2cc(C(=O)c3cc(Cl)ccc3O)cn2)s1	i	-0.3%	0.09
COc1cccc(-n2c(Cc3cc(=O)[nH]c(=O)[nH]3)nnc2SCC(=O)N2CCC(C)CC2)c1	i	0.6%	0.16
Cc1c(C(=O)Nc2nccs2)sc2nc(-c3cccs3)cc(C(F)(F)F)c12	i	-6.1%	nt
Cc1ccc(CN(C(=O)c2c(F)cccc2F)C2CC(C)(C)NC(C)(C)C2)o1	i	3.1%	-0.12
Cc1cc(=O)oc(C)c1C(=O)NC1CC(C)(C)NC(C)(C)C1	i	-6.4%	-0.01
Cc1cc(Cl)c(S(=O)(=O)NCc2cccnc2)cc1OCC(=O)NC1CCCCC1	i	5.3%	nt
CSc1ccc(C(=S)N2CCN(C)CC2)cc1	i	0.8%	-0.57
CCOC(=O)C1CCN(C(=O)Cc2ccc(OC)c(OC)c2)CC1	i	-1.3%	-0.33
O=C(Cc1cccs1)Nc1ccc(-c2nnn(CC(=O)N3CCOCC3)n2)cc1	i	-6.0%	-0.98
CC(C)C(=O)N1CCN(c2nc(-c3ccccc3)c3c(c2C#N)CCCC3)CC1	i	-4.5%	0.65
Cc1ccc(C(=O)NC(=S)NNC(=O)c2ccccc2[N+](=O)[O-])cc1	i	0.7%	nt
COc1ccc(S(=O)(=O)NCc2ccccc2Cl)cc1OC	i	6.6%	-1.2
COc1ccc(Cl)cc1Nc1cc(C)nc2nc(C)nn12	i	5.0%	1.2
CCOc1cccc2cc(C(=O)N3CCN(C/C=C/c4ccccc4)CC3)c(=O)oc12	i	0.9%	-0.84
CNC(=S)N/N=C(\C)c1ccc(-n2ccnc2)cc1	i	-1.7%	nt
CCOC(=O)c1nnn(-c2nonc2N)c1-c1ccc(C)cc1	i	4.1%	nt
CCN(Cc1cc2cc(OC)ccc2[nH]c1=O)C(=O)Cc1ccc(OC)cc1	i	-0.1%	-0.11
CCN1C(c2ccccc2)=C(c2ccccc2)S/C1=C/C=C1\SC(=S)N(C)C1=O	i	-6.6%	nt
O=C(CCN1C(=O)C2C3C=CC(C3)C2C1=O)N1CCN(c2ccccc2F)CC1 (stereo not given)	i	-4.4%	-0.99
CCCOC(=O)c1ccc(NS(=O)(=O)c2cccs2)cc1	i	-0.9%	-1.2
O=C(CSc1nnc(-c2ccccn2)n1-c1ccccc1)Nc1ccc2c(c1)OCO2	i	-0.6%	0.18
O=C(CC1SC(N2CCCCC2)=NC1=O)Nc1cccc(C(=O)O)c1 (stereo not given)	i	-3.7%	-0.36
CCOC(=O)C(C#N)C(Cc1ccccc1)c1ccco1 (stereo not given)	i	6.2%	-0.14
O=C(CSC1=NCCS1)Nc1cccc2ccccc12	i	-0.3%	nt
COc1cc(-c2noc(CCC(=O)Nc3cccnc3)n2)cc(OC)c1OC	i	1.0%	-0.78
O=C(CCc1ccccc1)NC1CCSC1=O (stereo not given)	i	-0.5%	-0.26
CC(C)CSc1nc2ccccc2c(=O)[nH]1	i	1.1%	nt
CCN(CC)S(=O)(=O)c1ccc(Cl)c(OC)c1	i	-1.6%	nt
CCCCCC1NC(=O)NC1CCCCCC(=O)O (stereo not given)	i	-2.1%	-1.1
c1coc(CN(Cc2ccco2)c2ncnc3c2oc2ccccc23)c1	i	0.4%	nt
CCOc1ccccc1N(CC(=O)Nc1ccccc1C(=O)NCc1ccco1)S(C)(=O)=O	i	1.8%	2.1
Cc1cc(NC(=O)CSc2nnc(-c3ccco3)n2Cc2ccco2)no1	i	4.2%	-0.94
CCOc1ccc(CCNC(=O)C(O)c2ccccc2)cc1 (stereo not given)	i	2.1%	0.85
CC1(C)N=C(N)N=C(N)N1c1cccc(C(=O)O)c1	i	-4.4%	nt
Cn1c(=O)oc2cc(S(=O)(=O)NCCCN3CCCC3=O)ccc21	i	1.8%	-0.23
O=C(Nc1nn[nH]n1)C12CC3CC(CC(C3)C1)C2	i	5.5%	nt
COc1ccc(CCNC(=O)C2CCN(S(=O)(=O)c3ccc(-n4cnnn4)cc3)CC2)cc1OC	i	6.5%	nt

(cont.)
SMILES	MT1-MMP reporter	Hsc70 ATP site	WNV NS2B-NS3 inh
CCOC(=O)Cn1nc(-c2ccc(Cl)cc2)cc1N	i	-5.5%	1.4
CN(C)c1ccc(-c2ccncc2)cc1	i	2.4%	-0.95
CC(C)c1nc(N2CCN(C(=O)c3ccco3)CC2)c2c3c(sc2n1)CCCC3	i	-5.8%	0.29
CCCCNC(NCCCC)=C(S(=O)(=O)CC)S(=O)(=O)CC	i	-3.4%	0.42
Cc1oc(-c2ccc3c(c2)OCCO3)cc1C(=O)O	2.9µM*	1.4%	1.1
N#CN=C1SCCS1	i	5.7%	-1.2
CC12CCC(=O)N1c1ccccc1C(=O)N2c1ccccc1 (stereo not given)	i	-1.0%	0.68
COCC(C)NC(=O)c1cc(-c2cccc(OC)c2)on1 (stereo not given)	i	-2.4%	-0.19
O=C(CCCc1nc2ccccc2s1)N1CCN(S(=O)(=O)c2cccs2)CC1	i	-4.6%	-1.5
COc1cc(C2C(=O)N(C3CCCC3)CC(=O)N2Cc2ccco2)ccc1OC(C)C (stereo not given)	i	-5.9%	-0.07

Gathered by group: the compounds so far with a cyano group.
SMILES	MT1-MMP reporter	Hsc70 ATP site	WNV NS2B-NS3 inh
CC(C)C(=O)N1CCN(c2nc(-c3ccccc3)c3c(c2C#N)CCCC3)CC1	i	-4.5%	0.65
CCOC(=O)C(C#N)C(Cc1ccccc1)c1ccco1 (stereo not given)	i	6.2%	-0.14
N#CN=C1SCCS1	i	5.7%	-1.2

New compounds follow.
SMILES	MT1-MMP reporter	Hsc70 ATP site	WNV NS2B-NS3 inh
COc1ccc(NC2CCN(C3CC(=O)N(c4ccc(F)c(Cl)c4)C3=O)CC2)cc1 (stereo not given)	i	0.8%	-0.08
CCN(CC)S(=O)(=O)c1cc(C(=O)Oc2ccccc2OC)ccc1OC	i	3.5%	0.14
CCCS(=O)(=O)n1nc(-c2ccc(OC)cc2OC)cc1N	i	-1.0%	-1.1
COc1ccc(NC(=O)C2C(=O)NC3(C)CC2c2ccccc2O3)cc1 (stereo not given)	i	-5.1%	1.2
CCN(CC)S(=O)(=O)c1ccc(-c2nnc(SCC(=O)Nc3cc(OC)cc(OC)c3)o2)cc1	i	5.0%	nt
CCOC(=O)c1ccc(NC(=O)CSc2n[nH]c(-c3ccncc3)n2)cc1	i	-12%	0.21
CC1CCN(c2nncc3ccccc23)CC1	i	6.8%	0.0096
CCOC(=O)NC(Nc1nnc(SCC)s1)(C(F)(F)F)C(F)(F)F	i	2.0%	-0.31
CN(CC(=O)Nc1cccnc1)S(=O)(=O)c1ccccc1	i	-1.6%	nt
CC(=O)c1sc(NC(=O)C=C(C)C)nc1C	i	-4.1%	0.33
O=C(CCC(=O)OCC(F)(F)C(F)F)NCc1ccccc1	i	0.2%	-0.73
COc1ccccc1C(=O)Nc1ccc(S(=O)(=O)N2CCc3ccccc32)cc1	i	1.9%	nt
CCCCOC(=O)CSc1nnc(-c2cc(OC)c(OC)c(OC)c2)o1	i	-2.7%	0.23
CCCNC(=O)NC(=O)COc1c(F)c(F)cc(F)c1F	i	0.6%	nt
Cc1nc2c(ccc3nc(NC(=O)c4ccc(S(=O)(=O)N(C)C)cc4)sc32)s1	i	2.6%	-0.69
COc1ccc(C(=O)Nc2ccccn2)cc1	i	-1.1%	nt
CCn1c(C)nc2cc(-c3nc4n(n3)Cc3ccccc3-4)ccc21	+	5.7%	0.3
CSc1ccc(Cl)c(C(=O)OCC(=O)N2CC(C)OC(C)C2)c1 (stereo not given)	i	-3.6%	-0.99
C/C(N)=C(/C#N)C(=O)CSc1nnc(Nc2c(C)cccc2C)s1	i	-6.6%	-0.25
C[C@@](Cc1ccc(O)c(O)c1)(NN)C(=O)O	i	-2.8%	-0.6

Part of the list above in order of length of the SMILES, falling:
SMILES	MT1-MMP reporter	Hsc70 ATP site	WNV NS2B-NS3 inh
Cc1nc2c(ccc3nc(NC(=O)c4ccc(S(=O)(=O)N(C)C)cc4)sc32)s1	i	2.6%	-0.69
CCn1c(C)nc2cc(-c3nc4n(n3)Cc3ccccc3-4)ccc21	+	5.7%	0.3
C[C@@](Cc1ccc(O)c(O)c1)(NN)C(=O)O	i	-2.8%	-0.6

(continued)
SMILES	MT1-MMP reporter	Hsc70 ATP site	WNV NS2B-NS3 inh
Cc1cc(OCC(=O)NCCN2CCOCC2)ccc1Br	i	-0.2%	0.34
O=S(=O)(Nc1nc2ccccc2nc1NCc1ccco1)c1ccccc1	i	1.3%	-0.36
CCOC(=O)c1c(NC(=O)c2ccc(Br)o2)sc(C)c1CC	i	6.5%	1.4
O=C(NCCCN1CCOCC1)c1c(F)cccc1F	i	0.3%	-0.82
COc1cc(OC)c(C(=O)Nc2ccc(N(C)C)cc2)cc1OC	i	-1.1%	-0.23
CS(=O)(=O)N(CCc1ccccc1)CC(=O)N1CCN(c2ccccc2)CC1	i	-0.3%	-0.33
Cc1ccc(O)c(-c2cc(C(=O)NCc3ccncc3)[nH]n2)c1	i	4.1%	0.03
CCOC(=O)C1C(=O)CC(C)(O)C(C(=O)OCC)C1c1ccc(C)s1 (stereo not given)	i	3.0%	0.36
CCCOc1ccc(Oc2cc(C)nc(SC)n2)nn1	i	4.1%	nt
CCSc1nnc(NC(=O)c2ccc3c(c2)OCO3)s1	i	8.9%	-1.1
O=C(NCCC1=CCCCC1)C1CCN(S(=O)(=O)c2cccc3cccnc23)CC1	i	5.2%	-0.38
COc1cc(S(=O)(=O)N2CCN(C)CC2)ccc1Cl	i	1.2%	0.74
CC(Oc1ccccc1)C(=O)Nc1ccc(S(=O)(=O)NCC2CCCO2)cc1 (stereo not given)	i	4.9%	-0.51
Cc1ccc(NC(=O)COC(=O)Cn2c(C)csc2=O)cc1C	i	-4.4%	0.17
O=C(O)c1csc(Br)c1Br	i	-5.3%	0.45
C/C(=N\NS(=O)(=O)c1ccc(Br)cc1)c1cccs1	i	5.3%	nt
Cc1ccc(-c2noc(CNc3ccccc3)n2)cc1	i	-3.1%	nt
COCn1c(-c2ccc(OC)c(OC)c2)nc2ccccc21	i	1.0%	-0.28
Cc1ccc(NC(=O)NCc2ccc3c(c2)OCO3)cc1	i	0.8%	nt
COc1cc(C2C(C#N)=C(N)Oc3c2oc(CO)cc3=O)ccc1OC(C)C (stereo not given)	i	-5.8%	0.44
CCO/N=C(/C)c1c(O)c(C)c(-c2ccccc2)n(-c2ccccc2)c1=O	i	3.2%	nt
Cc1nn(-c2ccccc2)c(Cl)c1C1C(C#N)=C(N)OC2=C1C(=O)CC(C)(C)C2 (stereo not given)	i	3.1%	0.64
N#CC1=C(N)SC(N)=C(C#N)C1c1cccc(O)c1	i	-2.7%	nt
Cc1ccc(-n2c(SCC(=O)N3CCOCC3)nnc2-c2cccnc2)cc1	i	-1.6%	0.84
CCc1ccccc1NC(=O)N1CCC(NC(=O)C(Cc2ccc(OC)c(OC)c2)NC(C)=O)CC1 (stereo not given)	i	8.0%	nt
CCN(CC)C(=O)CSc1nnc(-c2ccc(O)cc2)n1CC1CCCO1 (stereo not given)	i	-1.7%	nt
CCC(C)C(=O)Nc1nnc(-c2cccs2)s1 (stereo not given)	i	2.2%	-0.16
CCCn1c(SCC(=O)NC(C)(C)C)nnc1C(C)C	i	-0.8%	0.36
N#CCCn1ccc(NC(=O)c2ccc(Cl)cc2)n1	i	0.9%	-0.68
Cc1sc2nc(SCC(=O)N3CCCC3)[nH]c(=O)c2c1C	i	-3.7%	1.4
COc1cccc(-c2nc(CS(=O)(=O)CC(=O)NCc3ccc(Cl)cc3)c(C)o2)c1	i	-5.1%	1
COc1ccc(OCC(=O)Sc2ccc(C)cc2)cc1	i	8.5%	nt
Cc1cc([N+](=O)[O-])ccc1NC(=S)NC(=O)C(c1ccccc1)c1ccccc1	i	2.6%	nt

An excerpt of these results, in CSV form.
Compound,MT1-MMP reporter,Hsc70 ATP site,WNV NS2B-NS3 inh
CCN(CC)C(=O)CSc1nnc(-c2ccc(O)cc2)n1CC1CCCO1 (stereo not given),i,-1.7%,nt
CCC(C)C(=O)Nc1nnc(-c2cccs2)s1 (stereo not given),i,2.2%,-0.16
CCCn1c(SCC(=O)NC(C)(C)C)nnc1C(C)C,i,-0.8%,0.36

Screening data: PubChem, several laboratories
